Compound activity (PubChem BioAssay)
Biofilm kill mix: mixtures killing C. albicans biofilm | C. albicans biofilm persisters + clotrimazole, fluorescence viability; primary screen in compound mixtures of four per well | inhibition, % at 7.6 µM | 120,000 tested, 0.02% active | AID 1242;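 active = inhibition above 30.3% in the primary screen of four-compound pools, then above 30% when the compound was retested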;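 note: compounds exposed to preformed 24 h biofilms for 48 h; the number belongs to the whole pool; some results filed as inactive read as strong as hits; inactives centre near 12; 0% = biofilm with clotrimazole alone and 100% = kill control; retested singly at about 60 µM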
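Probe or stimulus – Clotrimazole 50 µg/mL co-treatment · System – C. albicans biofilms · Schedule – 24 h biofilm formation, then 48 h compound exposure, 37 °C · Evaluation – percent inhibition of biofilm viability · Technique – 2-h Alamar Blue fluorescence, 535/590 nm excitation/emission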
* hit, by the source's call.

structure	Biofilm kill mix
O=C(c1ccc(F)cc1)N1CCN(c2ccc([N+](=O)[O-])cc2-n2cccc2)CC1	19
CCc1nnc(NC(=O)C(CC)c2ccccc2)s1 (stereo not given)	19
COc1ccc(NCc2nnc(SCC(=O)Nc3ccccc3)n2C)cc1	13
COc1ccc(/C=C2\NC(=O)C(C=NCc3ccccc3)=C2O)cc1	7
COc1ccc(C(C)=O)cc1CSc1nnc2c(Cl)cc(Cl)cn12	10
O=C(NCc1ccccn1)c1ccco1	14
COCCNC(=S)Nc1ccc(S(=O)(=O)Nc2cnc3ccccc3n2)cc1	17
COc1ccc(/C=C/C(=O)OCCNC(=O)c2ccncc2)cc1OC	34
Cc1ccc(S(=O)(=O)N2CCC(C(=O)OCc3ccc([N+](=O)[O-])cc3)CC2)cc1	15
CCC1=C2CC[C@H]3C(=O)N(CC)C(=O)[C@H]3[C@H]2[C@@]2(Cc3ccccc3)C(=O)N(Cc3ccccc3)C(=O)N2C1=O	16
CCCSc1nsc(NC(=O)CCC)n1	15
COc1nc(N=C(N)N)nc2ccc(C)cc12	-10
N#CCc1c(C#N)c(N)nc(N2CCCC(CO)C2)c1C#N (stereo not given)	12
CC(C)C(NC(=O)c1ccco1)C(=O)OCc1cc([N+](=O)[O-])cc2c1OCOC2 (stereo not given)	-11
COc1ccc2[nH]c(C(=O)Nc3ccc4c(c3)OCO4)cc2c1	15
CCOC(=O)c1c(C)[nH]c(C=Nc2ccc(OC)cc2)c1O	13
C[C@]12C[C@H](O)[C@@H]3c4ccc(O)cc4CCC3[C@@H]1CCC2=O (stereo not given in full)	16
COc1cc(-c2cc(N3C(=O)Nc4ccccc4N3O)n[nH]2)cc(OC)c1OC	11
CC[N+](C)(C)Cc1ccccc1Br	16
CN(C)CCN(Cc1ccccc1)c1ccccn1	9
O=C(OC[C@@H]1CCCN2CCCC[C@H]12)c1cc2ccccc2oc1=O	8
Cc1cccc(N(CC(=O)NCc2ccco2)C(=O)CCC(=O)Nc2nccs2)c1	21
Cc1cc(=O)[nH]c(N/N=C/C=C/c2ccccc2)n1	12
O=C(NCc1ccccn1)C1CCN(S(=O)(=O)N2CCC3(CC2)OCCO3)CC1	9
C=CCN1C(=O)S/C(=C/c2ccsc2)C1=O	5
O=C(O)c1cc(S(=O)(=O)Nc2ccc(N3CCCCC3)cc2)ccc1Cl	19
O=c1cc(CN2CCN(c3ccccc3)CC2)nc2scc(-c3ccccc3)n12	0
COc1ccc(OC)c(NC(=O)c2ccc(CSc3nnc(C)s3)cc2)c1	7
COc1ccc(/C=C/C(=O)NC(=S)NCC2CCCO2)cc1 (stereo not given)	8
Cc1cc(C)cc(Nc2nc3ccccc3c(=O)[nH]2)c1	-1
Cc1ccc(NC(=O)CSc2n[nH]c(C)c2[N+](=O)[O-])cc1C	7
Cc1ccc(C(C)n2cc(C(=O)NCc3ccccn3)nn2)cc1 (stereo not given)	15
CCC(=O)N(C1=C(NC(C)C)C(=O)c2ccccc2C1=O)C(C)C	15
CC12CCC(C(=O)Nc3ccncc3)(CC1O)C2(C)C (stereo not given)	16
O=C(NNC(=O)c1cc2cc(Br)ccc2oc1=O)c1ccc(O)cc1	7
COc1ccc(NC(=O)COC(=O)c2ccco2)c([N+](=O)[O-])c1	16
CC1N(C)c2cc(NC(=O)c3ccco3)c(P(=O)(Nc3ccc([N+](=O)[O-])cc3)N3CCOCC3)cc2C1(C)C (stereo not given)	5
Cc1ccc(NC(=O)CN2C(=O)NC(Cc3ccccc3)C2=O)c(Br)c1 (stereo not given)	21
CC(C)c1cc(Br)ccc1OCCN1C(=O)NC(C)(C)C1=O	16
O=C(CCCn1cnc([N+](=O)[O-])n1)Nc1cccc(O)c1	8
O=C(Nc1ccc(N2CCCC2)c(Cl)c1)c1ccco1	12
O=C(CN1CCC(NC(=O)c2ccccc2F)CC1)Nc1ccc2c(c1)OCCO2	24
Cc1ccc(C2C(C#N)=C3N=C(N)c4ccccc4N3C3=C2C(=O)CCC3)cc1 (stereo not given)	12
Cc1ccc2nc(-c3ccccc3N)[nH]c2c1	18
Cc1cc(NC(=O)COC(=O)c2c(C)noc2C)ccc1Br	4
COc1ccc(/C=N/Nc2cc(=O)n(C)c(=O)n2C)cc1OC	24
COc1ccc(C2C(C(=O)c3ccco3)=C(O)C(=O)N2c2nnc(C)s2)cc1 (stereo not given)	6
CCOc1cnn(Cc2ccccc2)c(=O)c1SCc1ccccc1	12
CN(C)S(=O)(=O)Nc1ccccn1	6
COc1ccc(N(C(=O)CCl)C(C(=O)NCCc2ccccc2)c2cccs2)cc1 (stereo not given)	7

Next part.
structure	Biofilm kill mix
CC(C)OC(=O)CC1C(=O)NCCN1C(=S)NC(=O)c1ccccc1 (stereo not given)	17
O=C(NCC1CCN(C(=O)c2ccc([N+](=O)[O-])cc2)CC1)C(=O)Nc1ccccc1	7
COCCNC(=S)N/N=C(\C)c1ccc(OC)cc1	2
CC(=O)c1sc(-c2ccc(Cl)cc2)nc1C	13
Clc1ccc(-c2cnc3n2CCCCC3)cc1	20
O=C(COC(=O)c1nc(Cl)ccc1Cl)Nc1ccccc1OC(F)F	11
COc1cc(NC(=S)Nc2ccccn2)cc(OC)c1OC	11
O=c1oc(-c2ccccc2NS(=O)(=O)c2ccc(Cl)cc2)nc2ccccc12	-1
CCOc1cccc(C(=O)NC(=S)Nc2ccc(Cl)cc2C(=O)O)c1	16
CCn1c(COc2ccc(OC)cc2)nnc1SCc1nc2ccccc2c(=O)[nH]1	15
CCOc1ccc(S(=O)(=O)Nc2nc3ccccc3nc2-n2ccc(=NC(=O)c3cccs3)cc2)cc1	20
Cc1ccc([N+](=O)[O-])c2c1C(N1CC(C)OC(C)C1)C(C)(C)O2 (stereo not given)	15
S=C(Nc1ccccc1)c1nc2ccccc2s1	13
C#CCNC(=O)C1=C[C@H](c2csc3ccccc23)C[C@H](OCCCCO)O1	21
O=[N+]([O-])c1ccc2nnn(O)c2c1	17
CC(=O)c1ccc(NC(=O)Nc2ccc([N+](=O)[O-])cc2)cc1	13
Cn1c(CNc2ccc(Cl)cc2)nnc1SCC#N	24
O=S(CC1CC1(Cl)Cl)CC1CC1(Cl)Cl (stereo not given)	17
CCOCCCNCc1ccc(OCc2ccccc2C)c(OC)c1	9
CC(C)N(C(=O)NC(=O)Nc1ccc(S(=O)(=O)N2CCCC2)cc1)S(C)(=O)=O	7
CC(=O)Oc1ccc(/C=N/NC(=O)CCSc2ccccc2)cc1	29
O=C(Nc1ccccc1N1CCOCC1)c1cccc(F)c1	14
COc1ccc(C(=O)COC(=O)C(CCSC)NS(=O)(=O)c2ccc(Cl)cc2)cc1 (stereo not given)	9
Cc1ccnc(N/N=C/c2ccccc2)n1	14
O=C(/C=C/c1ccccc1)NCCc1nc2ccccc2[nH]1	26
COC(=O)c1c(-c2c(Cl)cccc2Cl)noc1C(=O)NN	11
CCOC(=O)C1(CC)NC(c2ccco2)C2C(=O)N(C)C(=O)C21 (stereo not given)	15
Cc1c(CN(C)C(=O)c2nn(C)cc2[N+](=O)[O-])cnn1C	16
COc1ccc(NC(=O)COC(=O)CNC(=O)c2cc(OC)c(OC)c(OC)c2)cc1	15
CCc1cccc(C)c1NC(=O)CC(C)(C)CC(=O)O	11
COc1ccc(-c2nnn(-c3cc(Cl)cc(Cl)c3)c2N)cc1	12
COc1cc(O)c(C(CC(=O)N2CCCCC2)c2ccc3c(c2)OCO3)c(OC)c1 (stereo not given)	15
Nc1cc(N)nc(SCC(=O)N2CCN(S(=O)(=O)c3ccccc3)CC2)n1	14
N/C(=N\OC(=O)COc1ccc([N+](=O)[O-])cc1)c1ccc(Br)cc1	12
COc1cccc(C(=O)NNC(=O)c2sccc2-n2cccc2)c1	12
O=C(Cc1ccc([N+](=O)[O-])cc1)NCc1ccccc1Cl	12
O=C(c1ccc(C(F)(F)F)cc1)C1CCCN(C(=O)CN2CCCC2=O)C1 (stereo not given)	6
Cc1ccc(N=C2C(=S)N(c3ccc(C)cc3)C(=N)N2/N=C/c2ccc(Cl)cc2)cc1	16
O=C(/C=C/c1ccccc1Cl)NCCc1ccc(F)cc1	11
CCC1=NN(S(=O)(=O)c2ccc(C)cc2)C(O)(C(F)(F)F)C1 (stereo not given)	15
O=C(COC(=O)/C=C/c1ccc2c(c1)OCO2)NC1CC1	-29
COc1ccc(N(CC(=O)Nc2ccccc2C(=O)O)S(=O)(=O)c2ccc(C)c([N+](=O)[O-])c2)cc1	1
COc1ccc(N2Cc3ccccc3C2=NC(=O)c2cccc([N+](=O)[O-])c2)cc1	18
FC(F)(F)c1ccc(Oc2ccc(Cl)cc2Br)nc1	20
O=C(Nc1nnc(C2CC2)s1)c1cc(S(=O)(=O)N2CCCCC2)ccc1N1CCOCC1	14
CC1CN(Cc2c(O)ccc3c(=O)c(-c4ccccc4)coc23)CC(C)O1 (stereo not given)	18
CC(=O)c1ccc(NS(=O)(=O)c2ccc(N)cc2)cc1	9
O=c1cc(CSc2ccc(Cl)cc2)nc(-c2ccccc2)[nH]1	10
Cc1ccc(S(=O)(=O)n2c([N+](=O)[O-])cnc2C)cc1C	5
C=CCNC(=S)Nc1ccc(C)c(S(=O)(=O)N2CCCCC2)c1	4

Next section.
structure	Biofilm kill mix
COCC(C)NC(=O)Cc1ccc(F)cc1 (stereo not given)	9
CN(C)CCCNC(=O)CCc1ncc(C(F)(F)F)cc1Cl	14
O=C(Nc1ccccc1C(=O)NCc1cccnc1)c1ccc(Cl)cc1Cl	4
O=C(Nc1ccc2c(c1)OCCO2)C1CCN(c2ncccn2)CC1	3
Fc1ccccc1-c1nc(N2CCCCC2)c2ccccc2n1	11
Cc1cc(C)cc(C(=O)Nc2ccc(N3CCCC3)cc2)c1	18
COC(=O)C1=CN(Cc2cccs2)C=C(C(=O)OC)C1c1ccc(OC)cc1OC	11
Cc1ccc(NC(=S)NC(=O)c2ccc(F)cc2)cc1S(=O)(=O)Nc1cccc(Cl)c1	0
Nc1ccc(Br)c2cccnc12	24
CCOc1ccc(C2C(C(=O)O)CCC(=O)N2C2CCCCC2)cc1 (stereo not given)	10
CCCc1nnc(-c2ccc(OC)cc2)o1	8
COC(=O)c1cnc(SCc2ccc([N+](=O)[O-])cc2)n1C	5
CN1CCc2c(n(CC(O)CN3CCN(CCO)CC3)c3ccccc23)C1=O (stereo not given)	22
NC(=O)c1ccsc1NC(=O)C1CC1	26
CC(=O)N1[C@H](Cc2ccccc2)C=C[C@]1(C)C(=O)NCc1ccc(C)o1	16
CCC1(C)Cc2ccccc2-c2[nH][nH]c(=O)c21 (stereo not given)	9
COc1cc2c(cc1NC(=O)c1cccc(S(=O)(=O)N(C)C)c1)oc1ccccc12	16
COc1ccc(-c2[nH]ncc2CN2CCCCCCC2)c(OC)c1	9
CC(=O)C1=C(O)CC(C)(C)CC1=NCc1nc2ccccc2[nH]1	1
C=CCNCCCOc1ccc(C)cc1Br	9
O=C(NC(=S)Nc1cc(C(F)(F)F)ccc1N1CCOCC1)c1sc2ccccc2c1Cl	10
CC(C)OC(=O)c1cccc(-c2ccc(C=O)o2)c1	9
Cc1ccc(/C=N/n2c(C)nc3ccccc3c2=O)s1	12
COCCCNc1nc2ccccc2nc1NS(=O)(=O)c1ccc(C)cc1	30
CCc1cccc(NC(=S)N(CCCN2CCOCC2)C(C)c2cc3cccc(OC)c3o2)c1 (stereo not given)	13
CCc1ccc(C(=O)NNc2ccc(C)c(Cl)c2)cc1	22
COc1ccccc1NC(=O)CCCn1c(=S)[nH]c2ccccc2c1=O	16
CCCCN(C(=O)CSc1cc(C)c2ccc(OC)cc2n1)c1c(N)n(Cc2ccccc2)c(=O)[nH]c1=O	15
CN(C)N=Nc1ccc(S(N)(=O)=O)cc1	16
O=C(Nc1ccccc1)N1CCN(CCc2ccccc2)CC1	26
O=c1c2cc(NC(=S)NC3CC3)ccc2nc2n1CCCCC2	4
CC(C)(C)NC(=O)CSc1nnc(C2CC2)n1-c1ccccc1	0
Cc1ccc(-c2c[n+](CC(=O)Nc3c(C)cccc3C)c3n2CCC3)cc1	25

Some of the compounds tested, so the mix of outcomes need not match the whole.
